MenB inh: M. tuberculosis MenB inhibitors, primary screen, biochemical, absorbance; inhibition, %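 (about 12 µg/mL by stock and volumes)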; 100,000 tested, 0.43% active; MenB enzyme assay, absorbance read-out; some hits fall short of the stated cut;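 active = mean of two replicates above 30%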;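 also: 0% = no compound and 100% = wells with inactive enzyme; the first replicate is given; strong numbers were not always called active; inactives centre near -10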
MbtI inh: MbtI salicylate synthase inhibitors, primary screen, biochemical, fluorescence intensity; 100,000 tested, 0.89% active; purified MbtI enzyme, fluorescence intensity read-out; AID 493033, 2011; inhibition, %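 (about 17 µg/mL by stock and volumes)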;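 active = above 50% in both replicates, above 80% if mildly self-fluorescent; inactive = the rest, strongly fluorescent compounds included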;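 also: 0% = mean of negative and 100% = mean of positive controls; one replicate is shown; some compounds called inactive have numbers as strong as hits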
Target sequence (P9WFX0 whole entry, looked up): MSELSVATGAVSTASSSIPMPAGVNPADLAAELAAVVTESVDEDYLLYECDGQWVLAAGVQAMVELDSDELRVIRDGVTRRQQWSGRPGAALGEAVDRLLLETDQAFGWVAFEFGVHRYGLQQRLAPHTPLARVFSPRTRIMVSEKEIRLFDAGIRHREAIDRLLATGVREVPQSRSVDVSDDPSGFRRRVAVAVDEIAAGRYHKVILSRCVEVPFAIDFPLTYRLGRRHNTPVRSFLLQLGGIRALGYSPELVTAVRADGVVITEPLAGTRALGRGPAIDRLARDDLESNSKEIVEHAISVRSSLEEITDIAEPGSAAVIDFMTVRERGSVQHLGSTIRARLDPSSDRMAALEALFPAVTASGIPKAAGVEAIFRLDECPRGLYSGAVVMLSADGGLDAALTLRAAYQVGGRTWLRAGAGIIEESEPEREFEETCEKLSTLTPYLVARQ
PV pol inh: poliovirus RdRp elongation inhibitors, primary screen, biochemical, fluorescence polarization, total intensity; Genome polyprotein (Poliovirus type 1 (strain Mahoney)), P03300; poliovirus polymerase elongation; stronger effect = lower value; % elongation, % (compound at 16.7 µg/mL); 150,000 tested, 0.66% active; AID 588519, 2011; in the data active = % elongation below about 90%; also: some results filed as inactive read as strong as hits
Target sequence (P03300 1749-2209 limits assumed): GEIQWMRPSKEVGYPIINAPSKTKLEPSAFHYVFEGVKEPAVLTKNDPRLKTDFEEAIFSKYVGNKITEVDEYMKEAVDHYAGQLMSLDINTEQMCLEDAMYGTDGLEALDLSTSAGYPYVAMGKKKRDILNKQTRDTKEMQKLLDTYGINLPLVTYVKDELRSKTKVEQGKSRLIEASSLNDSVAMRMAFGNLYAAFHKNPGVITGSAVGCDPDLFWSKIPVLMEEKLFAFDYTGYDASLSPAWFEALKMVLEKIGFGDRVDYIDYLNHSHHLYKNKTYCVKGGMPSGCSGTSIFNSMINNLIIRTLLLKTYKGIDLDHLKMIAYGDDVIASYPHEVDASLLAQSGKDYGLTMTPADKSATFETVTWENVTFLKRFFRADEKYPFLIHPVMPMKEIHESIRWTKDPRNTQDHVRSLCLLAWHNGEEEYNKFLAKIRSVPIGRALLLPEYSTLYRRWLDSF
PV pol inh intensity: recorded beside PV pol inh, whose call it bears; % elongation; measured here: total intensity read-out; formula for this scale not given here;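 total fluorescence in place of polarization; lower means less elongation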
Active calls of the source: *; i = inactive; . = not tested or not shown; & = joins results of further samples.

SMILES | MenB inh | MbtI inh | PV pol inh | PV pol inh intensity
CCn1cnc2ccc(N3Cc4ccccc4C3=N)cc21 | 7 | -30 | 103 | 105
N#C/C(=C\c1ccccc1)C(=O)Nc1cccc2c(=O)[nH][nH]c(=O)c12 | 3 | 0 | 100 | 99
CCCNS(=O)(=O)c1c[nH]c(C(=O)OC)c1 | -1 | -14 | 102 | 105
CCc1ccc(-c2nc(CSCC(=O)NC3CC3)c(C)o2)cc1 | -16 | -23 | 103 | 106
N#Cc1ccc(C=NCCN2CCNC2=O)cc1 | 3 | -8 | 100 | 108
COc1ccccc1CNC(=O)CO/N=C/c1cccs1 | -29 | 6 | 103 | 94
NS(=O)(=O)c1ccc(NC(=O)C2CCCNC2=O)cc1 (stereo not given) | 17 | -3 | 101 | 103
CCOc1ccc(/C=C(\NC(=O)c2ccccc2)C(=O)NC)c2ccccc12 | -1 | -8 | 101 | 106
COc1cccc(C(=O)NC(C)(C)C)c1OC | 5 | 2 | 103 | 104
CC(=O)N1CC(C)Oc2cc(S(=O)(=O)N(C)Cc3ccccc3)ccc21 (stereo not given) | -3 | -8 | 103 | 103
Cn1cnnc1Sc1ccc(Cl)cc1NC(=O)c1cc(=O)[nH]c2ccccc12 | -22 | 52 | 101 | 99
Cc1ccc(C)c(NC(=S)N(C)C)c1 | -3 | 1 | 99 | 101
O=c1nc2ccccn2c2c1c(=O)[nH]c1ccccc12 | 62* | 3 | 102 | 101
O=C1NC(=Nc2cccc(Cl)c2Cl)S/C1=C/c1ccco1 | 4 | 8 | 104 | 102
COc1ccc(C(=O)N/C(=C\c2cccc3ccccc23)C(=O)N2CCN(C)CC2)cc1 | . | -4 | 103 | 107
Cc1csc(=O)n1CC(=O)OCC(=O)Nc1ccccc1 | -7 | -1 | 102 | 94
CC(Sc1nnc(Nc2ccccc2F)s1)C(=O)Nc1ccccc1 (stereo not given) | 4 | 5 | 101 | 104
CC(=O)NC(C)c1nc2ccccc2n1CC(=O)Nc1cccc(C)c1C (stereo not given) | 5 | -21 | 113 | 123
CCCCCC(=O)Nc1ccc(C(=O)COC(=O)c2cccnc2N2CCCC2)cc1 | -18 | 28 | 96 | 90
COc1cccc(S(=O)(=O)Nc2ccc(C(=O)N3CCN(C(=O)c4ccco4)CC3)cc2)c1 | -20 | -8 | 103 | 102
CCOC(=O)C1CCN(Cc2cccc(OC)c2O)CC1 | 3 | . | 102 | 106
CCCC(C(=O)Nc1nccs1)c1ccccc1 (stereo not given) | 5 | -1 | 96 | 102
Cc1cc2c(c(=O)o1)C(c1ccc(C(F)(F)F)cc1)C(C(=O)OC(C)C)=C(N)O2 (stereo not given) | -16 | . | 105 | 117
Cn1cccc1CNC1CCCCCCC1 | 27 | -2 | 100 | 99
O=C(NCCCN1CCCC1=O)Nc1ccc(Cl)cc1 | -13 | 2 | 103 | 100
Nc1nnnn1/N=C/c1ccccc1O | -28 | 19 | 99 | 103
CC1CCN(S(=O)(=O)c2cccc(C(=O)N3CCN(c4ccc(F)cc4)CC3)c2)CC1 | -34 | -13 | 101 | 103
O=C(NCCc1ccccc1)c1ncn[nH]1 | -13 | -8 | 101 | 102
CCN=c1scc(-c2ccc(OC)cc2)n1/N=C(\C)c1ccc(C)o1 | -166 | -6 | 132 | 137
CC1CCc2cc(F)ccc2N1C(=O)c1cc(S(=O)(=O)N2CCCC2)cn1C (stereo not given) | -17 | 0 | 104 | 102
N=c1n(Cc2ccccc2)c2ccccc2n1CC(O)c1ccccc1 (stereo not given) | -33 | -7 | 102 | 106
Cn1c(NC(=O)C2CC2)cc(=O)n(C)c1=O | -16 | -2 | 103 | 104
CC1CC(C)CN(C(=O)NCc2noc3ccccc23)C1 (stereo not given) | -69 | -8 | 107 | 111
O=c1[nH]nc2n1-c1ccccc1SC2 | -20 | -5 | 101 | 104
CSC1=NCCN1CCOc1ccccc1 | 0 | 25 | 103 | 101
CC(NC(=S)Nc1ccc(S(N)(=O)=O)cc1)c1ccc2c(c1)OCO2 (stereo not given) | -1 | -7 | 101 | 105
O=C(Nc1cccc(C(F)(F)F)c1)Nc1ccc2c(c1)OCO2 | -10 | -9 | 96 | 101
O=C(Cn1ncc2c(=O)oc3ccccc3c21)NCCCN1CCN(c2ccccc2F)CC1 | -10 | 5 | 103 | 108
O=C(NN1CCOCC1)c1ccccc1NS(=O)(=O)c1ccc(F)cc1F | -12 | 11 | 105 | 110
CC(C)c1ccc(S(=O)(=O)N2CCN(C(=O)n3ccnc3)CC2)cc1 | -31 | 6 | 99 | 99
CCC1SC(=Nc2ccc(C)cc2)NC1=O (stereo not given) | -14 | . | 100 | 103
O=C([C@H](Cc1ccccc1)N1Cc2ccccc2C1=O)N1CCN(c2ccccc2)CC1 | -16 | -8 | 101 | 101
c1ccc(CN2CCC(NCC3CCCO3)CC2)cc1 (stereo not given) | -5 | . | 100 | 103
COc1ccc(S(=O)(=O)NCC2CCC(C(=O)O)CC2)cc1 (stereo not given) | 2 | 1 | 102 | 98
CCC(C)NC(=O)C1COc2ccccc2O1 (stereo not given) | -17 | -2 | 99 | 104
CCCOc1ccccc1C1NC(=O)NC(C)=C1C(=O)OCC1CCCCC1 (stereo not given) | 4 | -1 | 100 | 102
CCOc1ccc(NC(=O)c2c(OC)cccc2OC)cc1 | -22 | . | 104 | 106
CC1=C(C(=O)N2CCOCC2)C(c2cc(Cl)ccc2OC(F)F)n2c(nc3ccccc32)N1 (stereo not given) | 2 | 28 | 102 | 105
CCCCS(=O)(=O)Nc1ccc2ncn(C)c(=O)c2c1 | -23 | . | 112 | 108
O=C1C2CC=CCC2C(=O)N1CCc1nc(-c2ccccc2)no1 (stereo not given) | -6 | -9 | 100 | 101
O=C(OCc1ccccc1)c1ccc(O)cc1 | -4 | -4 | 102 | 100
O=C1CCCN1c1ccc(S(=O)(=O)Nc2c(NC3CCCCC3)c3ccccc3oc2=O)cc1 | 7 | -10 | 102 | 103
O=C(O)CC1C(=O)NN=C2c3ccccc3N=CN21 (stereo not given) | -20 | 26 | 78* | 84*
Cc1ccc2c(c1)CNc1ccccc1O2 | 0 | -3 | 105 | 103
Cc1cccc(NC(=O)CN(C2=NC3CS(=O)(=O)CC3S2)c2ccccc2)c1 (stereo not given) | -66 | 4 | 99 | 93
CN(NS(=O)(=O)c1ccc(Cl)cc1)c1cnn(C)c(=O)c1Cl | -17 | -10 | 107 | 107
CC12CC(c3ccccc3O1)C(S(=O)(=O)c1ccccc1)C(=O)N2 (stereo not given) | 11 | -1 | 101 | 98
O=C(NC1CCCC1)c1cc(-c2ccc(Br)cc2)on1 | -12 | -7 | 101 | 105
Cc1ccc(N2C(=O)c3cc(N(C)C)ccc3P2(=O)N2CCOCC2)cc1 (stereo not given) | 6 | 4 | 106 | 103
Cn1c(=O)c2ccccc2n2c(CN3C(=O)NC4(CCCc5sccc54)C3=O)nnc12 (stereo not given) | -20 | 26 | 103 | 92

Part of the list above in order of heavy-atom count, highest first:
SMILES | MenB inh | MbtI inh | PV pol inh | PV pol inh intensity
CC12CC(c3ccccc3O1)C(S(=O)(=O)c1ccccc1)C(=O)N2 (stereo not given) | 11 | -1 | 101 | 98
CN(NS(=O)(=O)c1ccc(Cl)cc1)c1cnn(C)c(=O)c1Cl | -17 | -10 | 107 | 107
CCCCS(=O)(=O)Nc1ccc2ncn(C)c(=O)c2c1 | -23 | . | 112 | 108

Further structures follow.
SMILES | MenB inh | MbtI inh | PV pol inh | PV pol inh intensity
O=C(O)CCN(Cc1ccccc1)S(=O)(=O)c1cccs1 | -22 | -13 | 102 | 110
COc1ccccc1-c1nn(CNc2ccccc2)c(=S)o1 | 0 | . | 106 | 96
C=CCSC1=C(C#N)C(c2ccccc2C)CC(=O)N1 (stereo not given) | -12 | 1 | 104 | 107
COc1ccc(C(=O)O)s1 | -38 | 5 | 104 | 101
COC(=O)CN(c1ccccc1)S(=O)(=O)c1ccc(C)cc1 | -20 | 0 | 104 | 101
N#CCn1ccn(-c2cccc3ccccc23)c(=O)c1=O | 4 | 3 | 99 | 105
NC(=S)c1ccc(C(F)(F)F)cc1Cl | -16 | 0 | 106 | 113
CC(NS(=O)(=O)c1ccc(Cl)cc1)C(c1cccs1)N1CCN(C)CC1 (stereo not given) | -18 | -8 | 103 | 97
CC(=O)Nc1ccc(C(=O)OCC(=O)Nc2ccc(C)cc2)cc1 | . | -7 | 102 | 103
CC(C)(C)S(=O)(=O)c1cccc(S(=O)(=O)C(C)(C)C)c1 | 4 | . | 108 | 108
Cc1ccc(C)n1-c1ccc(C(=O)OCC(=O)c2ccc(Cl)cc2)cc1 | -40 | . | 103 | 110
O=c1c2ccccc2cnn1-c1ccc(F)cc1F | -7 | -6 | 106 | 103
O=C(O)c1cccc(N=Cc2ccc(N3CCOCC3)cc2)c1 | -14 | . | 97 | 104
CCC(=O)NC(c1c(C)[nH]n(-c2ccccc2)c1=O)(C(F)(F)F)C(F)(F)F | 0 | . | 107 | 105
CC(CC(=O)NCc1ccccc1)n1cccn1 (stereo not given) | -19 | -31 | 100 | 103
CCCCNS(=O)(=O)c1ccc(OCC(N)=O)cc1 | 1 | -20 | 104 | 104
S=C(NCCSc1nnnn1-c1ccccc1)Nc1ccccc1 | -1 | -12 | 103 | 101
Cc1cc(=O)oc2cc(OC(C)C(=O)Nc3nnc(C4CCCO4)s3)ccc12 (stereo not given) | 11 | 62 | 99 | 102
CC1CCc2c(sc(NC(=O)CN3C(=O)CCC3=O)c2C(N)=O)C1 (stereo not given) | -13 | 4 | 101 | 104
CCCCn1ccnc1C(=O)c1cccc(S(=O)(=O)N2CC(C)CC(C)C2)c1 (stereo not given) | -18 | -14 | 100 | 103
Oc1ccccc1-c1noc(-c2ccccc2O)n1 | -25 | 37 | 99 | 104
COc1ccc(S(=O)(=O)NNC(N)=S)cc1 | -15 | -10 | 107 | 99
CC(C)c1ccc(/C=C2\CSc3ccccc3C2=O)cc1 | 3 | 2 | 98 | 96
CCOc1ccc(NC(C)=O)cc1 | -8&-9 | -6&-11 | 103&101 | 103&99
O=C(Nc1ccc(F)cc1)[C@@H]1CCCN1S(=O)(=O)c1ccc(Cl)cc1 | -12 | 5 | 99 | 98
CCN1C[C@]2(C)CC[C@H](OC)[C@]34C2[C@H](OC(C)=O)C2(OCO[C@@]25CC(OC)C2C[C@]3(O)C5[C@H]2OC)[C@@H]14 (stereo not given in full) | 0 | -15 | 102 | 103
CCC(=O)NC(c1ccc(C(C)C)cc1)c1c(O)ccc2ccccc12 (stereo not given) | -24 | . | 109 | 107
C=C(C)/C=N/NC(=S)Nc1ccc(S(=O)(=O)N2CCOCC2)cc1 | -13 | 6 | 102 | 107
O=C(Nc1cccc(C(F)(F)F)c1)c1noc2c1CCCC2 | -30 | -4 | 102 | 100
COc1ccc(CC(=O)NCC(C)C)cc1 | -2 | . | 104 | 114
CCC(=O)Nc1nnc(COc2ccc(OC)cc2)s1 | -12 | -14 | 105 | 102
Cc1ccc(NC(=O)CSC2CCCC2)c(C)c1 | -41 | -6 | 103 | 101
C=CCN(c1ccccc1)S(=O)(=O)c1cccc2cccnc12 | -4 | 6 | 103 | 103
C=CCn1cnc2c(oc3ccccc32)c1=O | -10 | 19 | 100 | 91
O=S1(=O)CCC(Nc2nc(-c3cccnc3)nc3scc(-c4ccccc4)c23)C1 (stereo not given) | -22 | -35 | 103 | 109
CN1CCN(CCCNC(=O)c2cc3c(=O)n(C)c4ccccc4c3s2)CC1 | -16 | 120 | 91 | 91
CCN(CC)C(=O)CSc1nnc(-c2ccc(OC)cc2)n1CCOC | -1 | -12 | 101 | 102
CC(C)(C)n1cccc1C=C1C(=O)NC(=O)NC1=O | i | 29 | 99 | 102
CC1CCCC(C)N1C(=O)c1ccccc1 (stereo not given) | 5 | -3 | 99 | 102
COc1cc(SC)ccc1C(=O)N(C)c1ccccc1 | -5 | . | 105 | 107

Among those listed so far, these have fluorine:
SMILES | MenB inh | MbtI inh | PV pol inh | PV pol inh intensity
CC(Sc1nnc(Nc2ccccc2F)s1)C(=O)Nc1ccccc1 (stereo not given) | 4 | 5 | 101 | 104
Cc1cc2c(c(=O)o1)C(c1ccc(C(F)(F)F)cc1)C(C(=O)OC(C)C)=C(N)O2 (stereo not given) | -16 | . | 105 | 117
CC1CCN(S(=O)(=O)c2cccc(C(=O)N3CCN(c4ccc(F)cc4)CC3)c2)CC1 | -34 | -13 | 101 | 103
CC1CCc2cc(F)ccc2N1C(=O)c1cc(S(=O)(=O)N2CCCC2)cn1C (stereo not given) | -17 | 0 | 104 | 102
O=C(Nc1cccc(C(F)(F)F)c1)Nc1ccc2c(c1)OCO2 | -10 | -9 | 96 | 101
O=C(Cn1ncc2c(=O)oc3ccccc3c21)NCCCN1CCN(c2ccccc2F)CC1 | -10 | 5 | 103 | 108
O=C(NN1CCOCC1)c1ccccc1NS(=O)(=O)c1ccc(F)cc1F | -12 | 11 | 105 | 110
CC1=C(C(=O)N2CCOCC2)C(c2cc(Cl)ccc2OC(F)F)n2c(nc3ccccc32)N1 (stereo not given) | 2 | 28 | 102 | 105
NC(=S)c1ccc(C(F)(F)F)cc1Cl | -16 | 0 | 106 | 113
O=c1c2ccccc2cnn1-c1ccc(F)cc1F | -7 | -6 | 106 | 103
CCC(=O)NC(c1c(C)[nH]n(-c2ccccc2)c1=O)(C(F)(F)F)C(F)(F)F | 0 | . | 107 | 105
O=C(Nc1ccc(F)cc1)[C@@H]1CCCN1S(=O)(=O)c1ccc(Cl)cc1 | -12 | 5 | 99 | 98
O=C(Nc1cccc(C(F)(F)F)c1)c1noc2c1CCCC2 | -30 | -4 | 102 | 100
